Ecoli growth: E. coli growth inhibition, primary screen, OD600; hit rate 0.21% among 330,000; OD600 absorbance (no concentration beside the values); Escherichia coli growth, 23 h; active compounds read low;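 active means OD600 absorbance below the run mean of sample wells minus 3.6 SD, in any replicate, cut at about 0.56 in these data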;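 further: stock transfer was 300 nL into about 60 µL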
UCH37 DUB inh: inhibitors of human UCH37 deubiquitinase, primary screen, biochemical, Ub-AMC cleavage, fluorescence; Ubiquitin carboxyl-terminal hydrolase isozyme L5 (Homo sapiens), Q9Y5K5; purified proteasome/UCH37; inhibition, % (test concentration not listed); hit rate 0.33% among 330,000; AID 588478, 2011;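 active means mean of two replicates above 20%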;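 further: 0% = compound-free wells with enzyme and 100% = wells lacking proteasome; stock transfer was 100 nL into about 20 µL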
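Assay system: Proteasome-bound UCH37. Buffer or medium: pH 7.4 Tris-HCl (50 mM) with ovalbumin, ATP-MgCl2, DTT. Incubation: 30 min preincubation with enzyme, 25 min cleavage at room temperature. Measured by: fluorescence, ex 355 nm, em 460 nm. Read-out basis: percent inhibition. Control set: wells without proteasome as full block, compound-free enzyme plus substrate as uninhibited.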
HNF4A DNA FP: change in binding of human HNF4A to DNA, primary screen, biochemical, fluorescence polarization, FITC-DNA; Hepatocyte nuclear factor 4-alpha (Homo sapiens), P41235; 1 h; activity change, % at 10 µM; hit rate 0.3% among 360,000; AID 1224865, 2016; in the data active means activity change above about 30%, passing the limit was not always enough;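 further: controls were the assay level and a saturating level of protein; the project sought stronger binding though the title names inhibitors; some compounds called inactive have numbers as strong as hits; positive values seem to mean higher polarization but the record does not say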
B2AR ag: beta2AR agonists driving receptor internalization, primary screen, cell-based, FAP fluorogen, flow cytometry | hit rate 0.43% among 340,000 | response, % (concentration not given with the values) | Beta-2 adrenergic receptor (Homo sapiens), P07550 | Am2.2-beta2AR cells; reference of the scale not given here;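 active means response above a set limit, near 3 SD of response in nonfluorescent compounds, cut at about 42% in these data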;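 further: stock transfer was 100 nL into about 11 µL; a reference agonist was the positive control; negative values mostly stem from fluorescent compounds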
ALR inh: inhibitors of human ALR sulfhydryl oxidase, primary screen, biochemical, H2O2 detection, HRP-luminol luminescence, single point; FAD-linked sulfhydryl oxidase ALR (Homo sapiens), P55789; inhibition, % (no concentration beside the values); purified ALR, DTT oxidation; hit rate 3.8% among 290,000; AID 485317, 2010;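 active means mean and each replicate at 75% or more; inconclusive means only one of the two met; inactive means neither met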;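 further: stock transfer was 7.5 nL into about 7.5 µL; 0% = neutral wells and 100% = wells with inactivated enzyme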
FGF22 binding: binders of human FGF22 protein, primary screen, FGF22 synaptogenesis inhibitor project, biophysical, thermal shift, single point. hit rate 1.5% among 340,000. recombinant FGF22 thermal shift, SYPRO orange fluorescence; percent of sucrose octasulfate shift, DMSO zero. AID 651658, 2012. Fibroblast growth factor 22 (Homo sapiens), Q9HCT0. calls only at 9.99 µM;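 active means melting point raised past a set limit in the mean and every replicate; inconclusive means no clear call; three in four hits are not shown here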
LANA-H2A inh: blockers of LANA interaction with H2A/H2B – biochemical, FP readout, HTS, primary screen. Protein LANA1 (Human herpesvirus 8 type P (isolate GK18)), Q9QR71. cell-free LANA-H2A/H2B peptide, fluorescence polarization. inhibition, % (test concentration not listed). hit rate 0.6% among 320,000; in the data active means inhibition mostly above about 10%, no sharp cut-off; inactive means mostly below about 6.7%;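 further: stock transfer was 7.5 nL into about 10 µL; 0% = median of vehicle wells and 100% = median of positive control wells; one replicate is shown; the record names a cut of 25% in any replicate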
Target sequence (Q9QR71 whole entry, looked up): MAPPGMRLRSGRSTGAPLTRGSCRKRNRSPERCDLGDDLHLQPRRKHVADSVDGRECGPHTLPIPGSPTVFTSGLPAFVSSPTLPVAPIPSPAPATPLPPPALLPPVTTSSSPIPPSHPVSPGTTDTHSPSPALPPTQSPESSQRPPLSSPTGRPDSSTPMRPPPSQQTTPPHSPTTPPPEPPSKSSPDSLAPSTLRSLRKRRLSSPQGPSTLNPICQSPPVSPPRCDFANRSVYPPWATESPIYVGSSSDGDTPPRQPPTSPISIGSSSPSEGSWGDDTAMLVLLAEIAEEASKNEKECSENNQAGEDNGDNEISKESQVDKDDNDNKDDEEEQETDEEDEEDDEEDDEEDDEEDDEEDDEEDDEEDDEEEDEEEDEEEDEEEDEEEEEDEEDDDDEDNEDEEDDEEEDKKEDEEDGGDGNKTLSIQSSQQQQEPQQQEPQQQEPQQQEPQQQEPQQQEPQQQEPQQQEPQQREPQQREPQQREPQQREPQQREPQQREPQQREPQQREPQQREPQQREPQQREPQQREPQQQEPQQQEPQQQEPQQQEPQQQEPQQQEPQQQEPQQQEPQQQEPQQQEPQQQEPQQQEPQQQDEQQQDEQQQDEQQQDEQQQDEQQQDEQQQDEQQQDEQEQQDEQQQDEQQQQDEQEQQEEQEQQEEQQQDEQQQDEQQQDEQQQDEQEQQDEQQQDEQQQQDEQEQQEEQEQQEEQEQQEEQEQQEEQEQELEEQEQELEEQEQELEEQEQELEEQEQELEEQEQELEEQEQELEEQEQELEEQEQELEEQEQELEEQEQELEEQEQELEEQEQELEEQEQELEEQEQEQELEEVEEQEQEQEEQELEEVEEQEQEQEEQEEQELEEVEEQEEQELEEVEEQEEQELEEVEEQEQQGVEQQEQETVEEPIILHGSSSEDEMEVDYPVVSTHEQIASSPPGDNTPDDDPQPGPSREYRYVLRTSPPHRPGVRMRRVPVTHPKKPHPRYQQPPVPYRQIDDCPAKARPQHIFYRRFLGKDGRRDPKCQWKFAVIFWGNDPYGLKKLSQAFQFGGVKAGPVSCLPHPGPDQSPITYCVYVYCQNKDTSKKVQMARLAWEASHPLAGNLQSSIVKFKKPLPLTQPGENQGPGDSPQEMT
An asterisk follows results filed as active; i = inactive; ? = inconclusive; . = no result given; + = active, no number. These rows are one share of the data; the hit share may differ from the screen's.

SMILES	Ecoli growth	UCH37 DUB inh	HNF4A DNA FP	B2AR ag	ALR inh	FGF22 binding	LANA-H2A inh
Cc1ccc(OCC(=O)NNC(=O)C(=O)NC(C)(C)C)cc1	0.65	1.9	0.0	-4	-7	.	1.1
CC1CCc2cc(F)ccc2N1C(=O)c1cccs1 (centres undefined)	0.71	2.4	-0.8	-7	-1	i	2.6
Nc1nc(NCc2ccccc2)nc(-c2ccccc2)n1	0.67	5.4	-0.1	-4	-4	.	0.0
Cc1ccc(NC(=O)C(c2ccc(Cl)cc2Cl)N2CCCC2)cc1 (centres undefined)	0.71	2.7	2.0	37	-2	i	-6.7
O=C(CSc1nnc(CNC(=O)c2cccs2)o1)Nc1ccc(Cl)cc1	0.66	5.6	2.7	3	-18	i	1.4
COc1ccc(CCCC(=O)N/N=C/c2ccc(C)cc2)cc1	.	.	-2.2	17	-25	i	0.5
COc1ccc(C(=O)C(CN2CCCC2)c2ccccc2)cc1 (centres undefined)	.	.	-4.4	-9	22	.	4.0
CC(C(=O)c1c[nH]c(C(=O)N=CN(C)C)c1)c1ncc(C(F)(F)F)cc1Cl (centres undefined)	0.67	2.3	2.2	1	2	i	0.0
CCOc1ccc(CO/N=C/c2c(C)[nH]c(=O)[nH]c2=O)cc1	.	.	-1.7	7	-3	i	-0.3
O=C(NNC(=O)C(Cl)Cl)c1cnn(-c2ccccc2)c1C(F)(F)F	0.7	0.6	2.2	-1	-17	i	4.8
COc1ccc(C(=O)C(C)Sc2nnc(C3CC3)n2C2CC2)cc1 (centres undefined)	0.7	4.0	4.7	-10	-1	i	-1.3
Cc1ccc(S(=O)(=O)N2CCOCC2)cc1C(=O)Nc1nc(-c2ccccn2)cs1	0.7	2.4	0.8	5	-7	i	-0.2
O=C(NCCC(=O)N1CCN(c2ccccn2)CC1)c1ccc(Cl)cc1	0.7	-0.8	-0.8	-5	-9	i	4.5
O=C(c1cccc([N+](=O)[O-])c1)c1ccc2c(c1)OCCOCCOCCO2	0.71	5.9	3.0	6	-22	i	3.9
Fc1ccccc1CN1CCC(Cc2ccccc2)CC1	0.58	4.5	4.5	-4	.	i	2.6
COc1ccc(S(=O)(=O)N(C)CC(=O)NC2CCCCC2)cc1OC	0.7	1.8	5.5	-6	2	.	1.5
COC(=O)c1c(NC(=O)CSc2ncnc3c2cnn3-c2ccccc2Cl)sc2c1CCCC2	0.73	2.2	1.1	3	-9	.	9.4
C=CCn1c(SC(C)C(=O)NCC2CCCO2)nnc1-c1ccc(OC)cc1 (centres undefined)	0.67	0.7	3.3	-3	0	i	1.5
CCO[C@H]1OC(C(=O)N2CCOCC2)=C[C@@H](C)[C@@H]1CCCO	.	-0.9	1.6	5	.	i	-1.2
Nc1nnc(SCC(=O)Nc2ccc3nc(SCC(=O)Nc4ccccc4)sc3c2)s1	0.7	2.0	5.4	14	-42	.	4.2
O=C(O)c1ccc2c(=O)n3c(nc2c1)/C(=C/c1cccc(O)c1)CC3	0.68	7.9	1.9	1	.	i	-5.4
CC(=O)/C(=N\Nc1ccc(Cl)cc1Cl)Sc1nnc(-c2ccccc2)n1-c1ccccc1	.	.	3.5	-12	4	.	4.0
COc1ccc(/C=C2/SC(=S)N(CCCC(=O)Nc3ccc(O)cc3)C2=O)cc1	0.75	7.0	-1.3	13	12	i	-1.4
COc1ccccc1-c1sc2cc3c(cc2c1C#Cc1cncn1C)OCO3	0.73	-4.3	-4.6	17	-1	i	2.3
Cc1nc2ccccn2c1C(=O)NNS(=O)(=O)c1ccc(C(C)(C)C)cc1	0.69	3.7	-3.4	-4	17	.	1.0
O=C(CSc1nn(-c2ccccc2)c(=S)s1)Nc1ncccn1	0.71	1.8	2.8	-2	.	i	0.6
O=C(NCC1CCCO1)C(c1ccncc1)N(Cc1ccc(F)cc1)C(=O)CN1C(=O)c2ccccc2S1(=O)=O (centres undefined)	0.7	-0.8	-0.9	0	.	.	.
CC(OC(=O)C1=NN(c2ccccc2)C(=O)CC1)C(=O)NC1CCCCC1C (centres undefined)	0.69	1.6	3.0	-2	.	i	-0.1
O=C(Cc1ccccc1)c1c[nH]c(C(=O)C(Cl)(Cl)Cl)c1	0.62	2.9	2.8	32	.	i	-2.9
CCc1ccccc1OCC(=O)Nc1ccc2c(c1)OCCO2	0.65	2.0	3.1	0	9	i	-5.1
COc1ccc(Cl)cc1NC(=O)c1cccc(NC(=O)CCC(=O)O)c1	0.67	-0.6	-1.9	0	-1	i	2.0
COc1ccc(CC(=O)Nc2ccccc2C(=O)N2CCOCC2)cc1OC	0.67	2.2	0.2	0	-2	.	1.6
CC(OC(=O)CNS(=O)(=O)c1ccc2ccccc2c1)C(=O)N(C)c1ccccc1 (centres undefined)	0.72	2.8	0.5	0	-2	i	-2.0
O=C1C2CCCCN2C(=O)N1CCCCN1CCN(c2ccccc2Oc2ccccc2)CC1 (centres undefined)	0.69	1.3	2.8	8	26	i	1.2
COc1ccc(C2NC(=O)N(CCCC(=O)O)C(C)=C2C(=O)OCc2ccccc2)cc1 (centres undefined)	.	0.4	.	.	17	i	-4.4
O=C(c1ccc(Oc2ccc(Cl)cc2)c([N+](=O)[O-])c1)N1CCCC1	0.7	3.3	0.7	-23	.	i	-4.2

Quoted at random: four compounds from above, in no set order.
SMILES	Ecoli growth	UCH37 DUB inh	HNF4A DNA FP	B2AR ag	ALR inh	FGF22 binding	LANA-H2A inh
O=C(CSc1nnc(CNC(=O)c2cccs2)o1)Nc1ccc(Cl)cc1	0.66	5.6	2.7	3	-18	i	1.4
CCO[C@H]1OC(C(=O)N2CCOCC2)=C[C@@H](C)[C@@H]1CCCO	.	-0.9	1.6	5	.	i	-1.2
Cc1ccc(S(=O)(=O)N2CCOCC2)cc1C(=O)Nc1nc(-c2ccccn2)cs1	0.7	2.4	0.8	5	-7	i	-0.2
O=C(NCCC(=O)N1CCN(c2ccccn2)CC1)c1ccc(Cl)cc1	0.7	-0.8	-0.8	-5	-9	i	4.5

Returning to the listing with the 2 entries that preceded the break.
SMILES	Ecoli growth	UCH37 DUB inh	HNF4A DNA FP	B2AR ag	ALR inh	FGF22 binding	LANA-H2A inh
COc1ccc(C2NC(=O)N(CCCC(=O)O)C(C)=C2C(=O)OCc2ccccc2)cc1 (centres undefined)	.	0.4	.	.	17	i	-4.4
O=C(c1ccc(Oc2ccc(Cl)cc2)c([N+](=O)[O-])c1)N1CCCC1	0.7	3.3	0.7	-23	.	i	-4.2
COc1ccc(S(=O)(=O)NN(C)c2ncc(C(F)(F)F)cc2Cl)cc1	0.7	5.0	-0.2	-2	9	i	-3.3
Cc1ccc(C(=O)Nc2ccc(S(=O)(=O)NC3=NCCCCC3)cc2)cc1S(=O)(=O)N1CCOCC1	0.66	2.2	-0.4	-1	.	i	4.0
Cc1cc(-c2[nH]nc3c2C(c2cccc(O)c2)C(C#N)=C(N)O3)c(C)s1 (centres undefined)	0.63	2.4	-3.5	3	7	.	2.4
O=C(NC1=NCCS1)C1CCN(S(=O)(=O)c2ccc(Cl)cc2)CC1	0.71	4.9	-3.9	-6	-3	i	.
c1ccc(C(CN2CCCCC2)Oc2ccccn2)cc1 (centres undefined)	0.67	0.9	3.8	0	.	i	.
CC(C)c1ccccc1NC(=O)CSc1n[nH]c(=O)n1C1CC1	0.69	-0.1	1.0	-6	0	i	-5.7
CC(=O)N(c1ccc(C(C)C)cc1)C1C=CS(=O)(=O)C1 (centres undefined)	0.73	2.0	0.6	3	-6	.	2.1
COc1cccc(C2=CC(=O)C[C@H](c3ccc(F)cc3)C2)c1	.	4.1	-2.3	7	-1	i	11
COc1ccc(N2CCN(C(=O)COC(=O)Cc3cccc(OC)c3)CC2)cc1	0.65	1.4	4.2	-1	40	i	3.8
CC(C)NC(=O)NC(=O)COC(=O)c1ccc(S(=O)(=O)NCc2ccco2)cc1	0.69	1.4	-1.0	4	7	i	2.7
C/C(=N\NC(=O)CN1CCCCC1)c1cccc([N+](=O)[O-])c1	.	.	0.4	0	5	i	0.6
O=C(OCC(=O)N1CCC(Cc2ccccc2)CC1)c1cccnc1Cl	0.7	-2.0	-3.8	-2	-1	i	-2.5
CCCCC(=O)Nc1ccc2c(c1)nc1n2CCSC1	0.7	-0.7	-0.4	-7	99*	.	2.7
O=c1c2cc(NC(=S)NCc3ccccn3)ccc2nc2n1CCCCC2	0.68	1.6	0.6	-11	-4	.	-1.7
CCN(CC)C(=O)c1nc[nH]c1C(=O)N1CCC(C)CC1	0.71	4.8	-1.9	3	.	+	6.0
O=C(CSc1nnc(-c2ccccc2)n1-c1ccccc1)N1c2ccccc2Sc2ccccc21	0.77	0.2	0.9	9	4	.	6.3
O=C1c2cnccc2CN1Cc1ccccc1	0.72	3.8	1.7	0	-7	.	1.3
CCC(=O)Nc1ccc(S(=O)(=O)Nc2ncccn2)cc1	0.69	1.5	1.7	1	.	.	1.4
O=C(Oc1cccnc1)c1ccccc1[N+](=O)[O-]	0.68	1.7	-4.0	-8	-24	i	-0.2
CCOC(=O)Cc1nnc(NC(=O)CSc2nncn2C)s1	0.71	3.8	0.9	-4	-6	i	5.9
O=C(NC1CCCCC1)c1ccc(S(=O)(=O)NCc2ccco2)cc1	0.74	2.3	0.0	0	-3	.	1.2
COc1ccc(S(=O)(=O)N2CCCN(CC(=O)Nc3cc(NC(C)=O)ccc3OC)CC2)cc1	0.65	1.6	3.1	-7	1	.	-1.4
COc1ccc(CC(=O)NC(C)(C)C)cc1S(=O)(=O)N1CCOCC1	0.7	4.7	0.5	5	-10	.	-2.6
CCOC(=O)c1cccc(Nc2ncnc3ccc(C)cc23)c1	0.72	-28	2.8	-9	-2	.	-0.4
CCC(CC)C(=O)NCc1ccc2c(c1)cc(C)n2C	0.74	-3.3	-10	-4	-6	.	3.0
Cc1cccnc1NC(=O)CCNC(=O)c1ccccc1Cl	0.7	0.7	4.8	-3	-5	i	2.5
COc1cc(NC(=O)C2CC3CCC2C3)c(OC)cc1Cl (centres undefined)	0.67	5.8	-0.5	-5	-5	i	-4.9
COc1cc(CN2CCNC(=O)C2CC(=O)N2CCCO2)cc(OC)c1 (centres undefined)	0.72	-10	0.1	3	-12	i	-4.1
CC(C)Cc1nnc(NC(=O)c2cccc(S(=O)(=O)N3CCOCC3)c2)s1	0.71	-0.8	-0.6	-2	3	i	-2.8
CCN1CCN(CCC(=O)Nc2ccc(F)c(F)c2)CC1	0.67	3.0	1.1	-7	0	i	-0.2
COc1ccccc1CNC(=O)Cn1c(=O)oc2cc(Cl)ccc21	0.66	0.1	-0.5	-6	.	i	0.3
CC(C)(C)OC(=O)n1cc(CCO)c2ccccc21	0.7	0.9	-0.3	0	9	i	3.6
COc1cccc(C2Oc3ccccc3C3CC(c4cccs4)=NN32)c1 (centres undefined)	0.66	-0.9	5.0	16	?	i	-5.2
Cc1ccccc1-n1c(=O)cc(N2CCc3ccccc3C2)[nH]c1=O	0.71	27*	-3.3	4	.	i	3.9
Cc1cc(=O)[nH]c(-c2ccccc2O)n1	0.62	-20	-1.4	-1	-3	i	-0.2
Cc1ccc(C2(c3noc(CN4C[C@@H](C)O[C@@H](C)C4)n3)CCCC2)cc1	0.71	-1.8	0.4	-5	-10	.	-2.5

High-throughput results as filed in PubChem.
